Screening data as filed in PubChem BioAssay.
Vaccinia inh: Vaccinia orthopox stage-specific inhibition | Vaccinia-infected cells, mCherry/Venus stage reporter fluorescence; active compounds read low; some inactives read as strong as hits | activity change (mCherry), % (no concentration beside the values) | 89,000 compounds, 0.01% hits;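 active = mCherry past -33% and 40 or more points under the early reporter, replicates agreeing; inconclusive = past -33% without that gap or agreement; tested in A549 cells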;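 note: scaled between vehicle wells and reference inhibitor wells; 23 nL library stock went into each well; one replicate is shown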
Vaccinia inh Venus: also measured in Vaccinia inh; calls as there; activity change (Venus), %; measured here: Venus reporter, other viral stage;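 negative = less Venus signal; first of two replicates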
* hit, by the source's call; ? = inconclusive; / = not tested or not shown; & = joins results of further samples. The list is partial. The share of hits here may be higher or lower than overall.

| SMILES | Vaccinia inh | Vaccinia inh Venus |
| --- | --- | --- |
| COC(=O)C[C@@H]1CC[C@@H]2[C@@H](COc3ccc(NC(=O)c4ccc(F)cc4)cc3C(=O)N2C)O1 | -4.0 | 4.6 |
| Cn1cc(C[C@@H](N)C(=O)O)c2ccccc21 | 15.2 | 13.5 |
| C[C@H]1CN([C@@H](C)CO)C(=O)Cc2cc(NC(=O)Nc3ccc4c(c3)OCO4)ccc2O[C@@H]1CN(C)S(C)(=O)=O | -3.3 | -2.4 |
| C[C@@H]1CN([C@H](C)CO)C(=O)Cc2cc(NC(=O)Cc3cn(C)c4ccccc34)ccc2O[C@H]1CN(C)S(=O)(=O)c1cn(C)cn1 | 10.3 | 15.9 |
| COc1ccc(CNC(=O)C[C@H]2CC[C@H](NC(=O)Nc3ccc4c(c3)OCO4)[C@@H](CO)O2)cc1 | -0.5 | 12.0 |
| CCCN1C[C@H](C)[C@H](OC)CN(C)C(=O)c2cc(NC(=O)c3ccno3)ccc2OC[C@H]1C | 15.8 | 9.9 |
| O=C(Nc1ccc2c(c1)OCO2)N[C@H]1CC[C@H](CCNC(=O)C2CCCCC2)O[C@H]1CO | 1.5 | 1.0 |
| COCC(=O)Nc1ccc2c(c1)[C@@H]1C[C@H](CC(=O)NCC3CC3)O[C@H](CO)[C@@H]1O2 | 5.6 | 3.8 |
| O=C(N[C@H]1CC[C@H](CCNS(=O)(=O)c2ccc(F)cc2)O[C@H]1CO)C1CC1 | 4.3 | 0.8 |
| CN1C(=O)c2cc(NC(=O)c3cccc(F)c3)ccc2OC[C@H]2O[C@@H](CC(=O)NCc3ccccc3Cl)CC[C@@H]21 | -20.4 | -16.6 |
| O=C(N[C@H]1CC[C@@H](CCNS(=O)(=O)c2ccc(Cl)cc2)O[C@@H]1CO)c1cccc(F)c1 | -2.7 | -9.0 |
| C[C@@H]1CN([C@@H](C)CO)C(=O)c2cc(N(C)C)ccc2O[C@@H]1CN(C)S(=O)(=O)c1ccc(F)cc1 | 1.8 | 0.2 |
| O=C(Nc1ccccc1F)N1[C@@H]2CNC[C@H]1C2c1ccc(-c2cccnc2)cc1 (stereo partly drawn) | -27.2&3.8 | -12.6&15.3 |
| Cc1noc(C)c1NC(=O)Nc1ccc2c(c1)CC(=O)N([C@H](C)CO)C[C@H](C)[C@H](CN(C)Cc1ccc(C(=O)Nc3ccccc3N)cc1)O2 | 7.0 | 4.1 |
| Cc1noc(C)c1NC(=O)Nc1ccc2c(c1)C(=O)N([C@H](C)CO)C[C@@H](C)[C@H](CN(C)CC1CCCCC1)O2 | 9.2 | 7.5 |
| C[C@@H]1CN([C@H](C)CO)C(=O)c2cccc(NS(=O)(=O)c3cccs3)c2O[C@H]1CN(C)C(=O)NC1CCCCC1 | 17.2 | 27.0 |
| CNC[C@@H]1Oc2ccc(NC(=O)C3CCCCC3)cc2CC(=O)N([C@H](C)CO)C[C@H]1C | 6.8 | 6.3 |
| CCN(C[C@H]1[C@H](c2ccc(-c3cccnc3)cc2)[C@H](CO)N1C(C)=O)C(C)=O | 1.2 | 12.1 |
| COc1ccc(S(=O)(=O)N(C)C[C@H]2OCCCC[C@H](C)Oc3ccc(NS(=O)(=O)c4ccc(F)cc4)cc3C(=O)N([C@@H](C)CO)C[C@@H]2C)cc1 | ? | / |
| O=C(C[C@@H]1CC[C@H]2[C@@H](COC[C@@H](O)CN2Cc2ccc(Cl)cc2)O1)NCc1ccccc1Cl | ? | / |
| C[C@@H]1CN([C@H](C)CO)S(=O)(=O)c2ccc(Br)cc2O[C@@H]1CN(C)C(=O)CC1CC1 | 12.5 | 3.6 |
| C[C@H](CO)N1C[C@H](C)[C@@H](CN(C)C(=O)Nc2ccc3c(c2)OCO3)OCc2cn(nn2)CCCC1=O | -2.3 | -2.6 |
| COc1ccc(S(=O)(=O)Nc2cccc3c2O[C@@H](CN(C)Cc2ccc(C(F)(F)F)cc2)[C@@H](C)CN([C@H](C)CO)C3=O)cc1 | ? | / |
| CCC(=O)N1CC(=O)N2[C@@H](CO)[C@H](c3ccc(-c4ccccc4F)cc3)[C@@H]2C1 | 8.7 | -11.3 |
| O=C(Nc1cccc(Cl)c1)N[C@H]1CC[C@@H](CCNC(=O)C2CCOCC2)O[C@H]1CO | 13.2 | 6.9 |
| CO[C@@H]1CN(C)C(=O)c2cccc(C#N)c2OC[C@H]2O[C@H](CC[C@H]2OC)CCN(C)C(=O)[C@H]1C | 11.1 | 7.3 |
| COc1ccc(NC(=O)Nc2ccc3c(c2)C(=O)N([C@@H](C)CO)C[C@@H](C)[C@H](CN(C)C(=O)Cc2ccccc2)OCCCC[C@@H](C)O3)cc1 | -32.0 | -23.0 |
| COC(=O)[C@H]1[C@H](CO)[C@H]2Cn3c(ccc(-c4ccc(F)cc4)c3=O)[C@H]2N1Cc1ccccn1 | 15.3 | 16.0 |
| O=C(c1cnccn1)N1C[C@@H]2[C@H](c3ccccc31)[C@H](CO)N2Cc1ccccc1Cl | 9.9 | 8.6 |
| CN(C)CC(=O)N1CC2(C1)[C@H](c1ccccc1)[C@@H](CO)N2S(=O)(=O)c1ccccc1 | -2.1 | -2.8 |
| COc1ccc2c3c(n(C)c2c1)[C@H](CO)N(C)CC31CCN(C(=O)Nc2c(C)noc2C)CC1 | 6.5 | 5.6 |
| O=C(c1cnccn1)N1CC(=O)N2[C@H](C1)[C@H](c1ccc(-c3ccc(F)cc3)cc1)[C@@H]2CO | -2.3 | -1.0 |
| Cc1ccc(S(=O)(=O)Nc2cccc3c2O[C@@H](CN(C)Cc2ccc4c(c2)OCO4)[C@@H](C)CN([C@H](C)CO)C3=O)cc1 | -10.3 | -2.5 |
| CC(C)NC(=O)N(C)C[C@@H]1OCCCC[C@@H](C)Oc2ccc(NS(=O)(=O)c3ccc(Cl)cc3)cc2C(=O)N([C@@H](C)CO)C[C@H]1C | 18.7 | 8.7 |
| COc1ccc(S(=O)(=O)Nc2cccc3c2O[C@H](CN(C)CC2CC2)[C@@H](C)CN([C@@H](C)CO)C3=O)cc1 | -0.9 | 7.1 |
| CO[C@H]1CN(C)C(=O)c2ccc(NC(=O)c3cnccn3)cc2OC[C@H](C)NC[C@H]1C | -9.6 | -9.1 |
| C/C=C/c1ccc2c(c1)O[C@H](CN(C)C(=O)NC1CCCC1)[C@@H](C)CN([C@@H](C)CO)S2(=O)=O | -1.3 | -9.8 |
| C[C@@H](NC(=O)C[C@@H]1C[C@H]2c3cc(NC(=O)Nc4ccccc4F)ccc3O[C@H]2[C@H](CO)O1)c1ccccc1 | 9.5 | 10.3 |
| Cc1cccc(CN(C)C[C@H]2OCc3cnnn3CCCC(=O)N([C@@H](C)CO)C[C@@H]2C)c1 | 3.1 | -1.1 |
| CC(=O)N(C)C[C@H]1Oc2ncc(C#Cc3ccncc3)cc2C(=O)N([C@H](C)CO)C[C@H]1C | 2.6 | 7.3 |
| COc1ccc(C#Cc2cnc3c(c2)C(=O)N([C@H](C)CO)C[C@@H](C)[C@H](CN(C)C)O3)cc1 | 7.8 | 2.8 |
| COc1ccc(S(=O)(=O)N(C)C[C@H]2OCCCC[C@H](C)Oc3ccc(NS(C)(=O)=O)cc3C(=O)N([C@@H](C)CO)C[C@@H]2C)cc1 | 7.9 | 3.0 |
| CN1C(=O)c2cc(NC(=O)C3CCCC3)ccc2OC[C@@H]2O[C@@H](CC(=O)NCC(F)(F)F)CC[C@@H]21 | 5.3 | 5.4 |
| C[C@@H]1CCCCO[C@@H](CN(C)Cc2ccccc2)[C@@H](C)CN([C@H](C)CO)C(=O)c2cc(NC(=O)Nc3ccc4c(c3)OCO4)ccc2O1 | -3.6 | -6.1 |
| N#C[C@@H]1[C@@H](c2ccccc2)[C@@H](CO)N1C(=O)Cc1ccccc1 | 8.4 | 8.4 |

Whole records as entered above:
COc1ccc(C#Cc2cnc3c(c2)C(=O)N([C@H](C)CO)C[C@@H](C)[C@H](CN(C)C)O3)cc1 is entered as Vaccinia inh: 7.8; Vaccinia inh Venus: 2.8
C/C=C/c1ccc2c(c1)O[C@H](CN(C)C(=O)NC1CCCC1)[C@@H](C)CN([C@@H](C)CO)S2(=O)=O is entered as Vaccinia inh: -1.3; Vaccinia inh Venus: -9.8
Cc1cccc(CN(C)C[C@H]2OCc3cnnn3CCCC(=O)N([C@@H](C)CO)C[C@@H]2C)c1 is entered as Vaccinia inh: 3.1; Vaccinia inh Venus: -1.1

Next section:
Structure	Vaccinia inh	Vaccinia inh Venus
O=C(C[C@H]1CC[C@@H](NC(=O)Cc2cccnc2)[C@@H](CO)O1)Nc1ccccc1	12.4	6.1
C[C@@H]1CN([C@@H](C)CO)C(=O)c2cc(NC(=O)Nc3ccccc3)ccc2O[C@@H]1CN(C)C(=O)Nc1ccc(C(F)(F)F)cc1	-17.1	-3.9
C[C@@H]1CN([C@@H](C)CO)C(=O)Cc2cc(NC(=O)C3CC3)ccc2O[C@H]1CN(C)C(=O)Nc1ccccc1	12.0	6.7
O=C(C[C@@H]1C=C[C@H](NC(=O)c2cccc(F)c2)[C@@H](CO)O1)NCc1ccccc1	-0.4	3.9
CCCN(C)C[C@@H]1Oc2cc(C#CCC3CCCC3)ccc2S(=O)(=O)N([C@H](C)CO)C[C@@H]1C	-33.9	-31.2
COc1ccccc1NC(=O)N(C)C[C@H]1Oc2ncc(C#CCN(C)C)cc2C(=O)N([C@@H](C)CO)C[C@H]1C	5.5	-2.0
CO[C@@H]1CN(C)C(=O)c2ccc(NC(=O)Nc3ccccc3)cc2OC[C@H](C)NC[C@@H]1C	5.8	-0.1
COCC(=O)N(C)C[C@H]1Oc2ncc(C#Cc3cccnc3)cc2C(=O)N([C@H](C)CO)C[C@@H]1C	27.4	7.8
COc1ccc(S(=O)(=O)Nc2cccc3c2O[C@@H](CN(C)S(=O)(=O)c2ccc(F)cc2)[C@@H](C)CN([C@H](C)CO)C3=O)cc1	-3.3	-4.1
C[C@H](CO)N1C[C@H](C)[C@@H](CN(C)Cc2ccccn2)Oc2ncc(-c3ccccc3)cc2C1=O	-4.9&11.3	6.4&8.6
C[C@@H]1CN([C@H](C)CO)C(=O)c2cccc(NC(=O)c3cnccn3)c2O[C@H]1CN(C)S(=O)(=O)c1cccs1	?	/
CCO[C@H]1OC(C(=O)Nc2ccccc2)=C[C@@H](c2coc3ccccc3c2=O)[C@@H]1CCCO	-27.3	-22.7
O=C(NC1CCCC1)N1CC2(C1)[C@@H](c1ccccc1)[C@@H](CO)N2CC1CCCC1	?	/
Cc1cccc(S(=O)(=O)N2CC[C@@H]3[C@H]2c2cc(C#Cc4cccc(F)c4)ccc2N[C@@H]3CO)c1	-4.5	-0.3
C[C@@H]1CCCCO[C@H](CN(C)Cc2ccc(C(=O)O)cc2)[C@H](C)CN([C@H](C)CO)C(=O)c2cc(NC(=O)Nc3ccc4c(c3)OCO4)ccc2O1	19.1	15.6
O=C(C1CCOCC1)N1CC(=O)N2[C@H](CO)[C@@H](c3ccc(C#CC4CCCCC4)cc3)[C@H]2C1	-27.7	-44.0
Cc1cc(C(=O)Nc2cccc3c2O[C@H](CN(C)Cc2ccncc2)[C@H](C)CN([C@H](C)CO)C3=O)n(C)n1	-3.6	-2.0
O=C(C[C@H]1CC[C@H]2[C@@H](COC[C@H](O)CN2S(=O)(=O)c2ccc(Cl)cc2)O1)N[C@H]1CCN(Cc2ccccc2)C1	-23.1	-18.0
O=C(NCCN1CCCCC1)[C@H]1N[C@H]2c3ccc(-c4ccncc4)c(=O)n3C[C@H]2[C@@H]1CO	10.1	14.2
COc1cccc(-c2ccc3c(c2)[C@@H]2[C@@H](CCN2C(=O)C2CCOCC2)[C@@H](CO)N3)c1	8.1	5.9

Part of the list above in order of length of the SMILES, smallest number first:
Structure	Vaccinia inh	Vaccinia inh Venus
O=C(C[C@H]1CC[C@@H](NC(=O)Cc2cccnc2)[C@@H](CO)O1)Nc1ccccc1	12.4	6.1
COc1cccc(-c2ccc3c(c2)[C@@H]2[C@@H](CCN2C(=O)C2CCOCC2)[C@@H](CO)N3)c1	8.1	5.9
COc1ccccc1NC(=O)N(C)C[C@H]1Oc2ncc(C#CCN(C)C)cc2C(=O)N([C@@H](C)CO)C[C@H]1C	5.5	-2.0

The list goes on.
Structure	Vaccinia inh	Vaccinia inh Venus
CN1C(=O)c2cc(NS(=O)(=O)c3ccc(Cl)cc3)ccc2OC[C@@H]2O[C@@H](CC(=O)O)CC[C@H]21	8.0	6.4
Cc1noc(C)c1S(=O)(=O)Nc1ccc2c(c1)C(=O)N([C@@H](C)CO)C[C@@H](C)[C@H](CN(C)C(=O)C1CCCCC1)OCCCC[C@H](C)O2	-8.1	-14.6
Cn1cnc(CCNC(=O)C[C@@H]2CC[C@H]3[C@@H](COC[C@@H](O)CN3C(=O)Nc3ccccc3)O2)c1	-0.9	-0.6
CO[C@@H]1CN(C)C(=O)c2cc(NC(=O)c3cc(C)on3)ccc2OC[C@@H](C)N(C(=O)C2CCC2)C[C@H]1C	-10.7	0.2
CCCC(O)C#Cc1cnc2c(c1)C(=O)N([C@H](C)CO)C[C@H](C)[C@H](CN(C)Cc1ccncc1)O2 (stereo partly drawn)	13.0	18.2
COC(=O)[C@H]1[C@H](CO)[C@H]2Cn3c(ccc(-c4cncnc4)c3=O)[C@@H]1N2S(=O)(=O)c1ccccc1C	7.9	3.6
C#CCNC(=O)C1=C[C@@H](C(C)(C)C)[C@H](CCCO)[C@@H](OCC)O1	-4.5	-4.2
COc1ccc(CN(C)C[C@H]2OCCCC[C@H](C)Oc3ccc(NC(=O)Nc4ccc5c(c4)OCO5)cc3C(=O)N([C@H](C)CO)C[C@H]2C)cc1	?	/
C[C@H]1CCCCO[C@@H](CN(C)C(=O)C2CCCCC2)[C@@H](C)CN([C@@H](C)CO)C(=O)c2cc(NC(=O)c3ccccc3)ccc2O1	?	/
C[C@@H]1CN([C@H](C)CO)C(=O)c2cc(NS(=O)(=O)c3ccc(F)cc3)ccc2O[C@H]1CN(C)Cc1ccc(-c2ccccc2)cc1	-14.1	-12.3
O=C(Cc1ccccn1)N1CC[C@@H]2[C@H]1c1cc(-c3cccc(F)c3)ccc1N[C@@H]2CO	-11.2	2.2
C[C@@H]1CN([C@H](C)CO)C(=O)Cc2cc(NC(=O)CCN3CCOCC3)ccc2O[C@H]1CN(C)CC1CC1	7.3	1.8
